BJeLR viability – kills HRASV12-expressing BJeLR cells. BJeLR (HRASV12) viability, CellTiter-Glo ATP luminescence, 48 h; reference of the scale not given here. inhibition, % (concentration not given with the values). 0.17% of 300,000 active. AID 1554;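 active = replicate mean above 50%; inconclusive = above 50% but judged a plate artefact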;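 note: 50 nL library stock added to about 25 µL; numbers are from one replicate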
PrP 5UTR inh – inhibition of PrP 5' UTR reporter expression; cell-based PrP 5' UTR mRNA reporter, plate reader; AID 488862; inhibition, % (test concentration not listed); 0.35% of 340,000 active;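 active = every replicate at 50% or more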;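 note: 0 = median of the neutral control wells; tested in H4 reporter cells; numbers are from one replicate; inactives centre near -14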
ugtP null kill – kills S. aureus RN4220 lacking UgtP; S. aureus RN4220 ugtP deletion, OD600 growth, 16 h; some inactives read as strong as hits; growth inhibition, % (concentration not given with the values); 0.54% of 330,000 active; AID 1259309;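 active = z-score under -3 and OD600 up to 0.15 on both plates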;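 note: plate controls were untreated wells for no effect and antibiotic for full effect; wells of about 80 µL received 100 nL stock; the first replicate is given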
RN4220 kill – kills Staphylococcus aureus RN4220; inhibition, % (concentration not given with the values); 0.33% of 330,000 active; S. aureus RN4220 growth, OD600, 16 h;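 active = z-score of -3 or lower and OD600 up to 0.18 on both plates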;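 note: plate controls were untreated cells for no effect and reference antibiotic for full effect; stock transfer was 100 nL into about 80 µL; one replicate is shown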
Bead autofluor – counter-screen for toxin protease inhibitors: compound fluorescence. 3.1% of 360,000 active. compound autofluorescence counterscreen, microsphere flow cytometry; stronger effect = higher value. fluorescence intensity (no concentration beside the values). AID 624483;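 active = at least 3 SD above the mean of all compounds, about 16000 in these data; inconclusive = too few beads counted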;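 note: 100 nL of 1 mM stock went into each well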
Mtb hypoxia rep – inhibitors of hypoxia-regulated fluorescent reporter in Mycobacterium tuberculosis. 0.1% of 300,000 active. M. tuberculosis hypoxia-regulated fluorescent reporter, fluorescence. fluorescence inhibition, % (no concentration beside the values);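 active = 35 to 45% if threefold the growth effect, above 45% if 1.5-fold the growth effect; inactive = the rest, general growth blockers included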;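 note: wells of about 50 µL received 100 nL stock; 0% = vehicle wells and 100% = reference inhibitor wells; whole bacteria with a GFP reporter of the hypoxia response; strong numbers were not always called active; many hits fall short of the cut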
Mtb hypoxia rep growth – second read-out of Mtb hypoxia rep, no call of its own (marks repeat the call); growth inhibition, %; measured here: M. tuberculosis growth (absorbance);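 0% = vehicle and 100% = reference antibiotic; read after six days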
An asterisk follows results filed as active; u = inconclusive; x = no result given.

SMILES	BJeLR viability	PrP 5UTR inh	ugtP null kill	RN4220 kill	Bead autofluor	Mtb hypoxia rep	Mtb hypoxia rep growth
CCOc1ccc(C(=O)CN2CCN(S(=O)(=O)c3ccc(Cl)cc3)CC2)cc1	15	10	-21	3.6	2919	x	x
COc1ccc(Br)cc1CNC(=O)C1CCCN(S(=O)(=O)N2CC(C)CC(C)C2)C1 (stereo unspecified)	-9	-1	-1	3.1	4894	6	3
CC(=O)N1CCN(c2ccc([N+](=O)[O-])c(NCC3CCCO3)c2)CC1 (stereo unspecified)	-6	-11	-1	4.8	2445	5	2
O=C(/C=C/c1cccs1)N1CCC2(CC1)Oc1ccc(Cl)cc1C(=O)C21CC(c2ccccc2)=NO1 (stereo unspecified)	-10	-18	x	x	3585	x	x
Cc1ccccc1N/N=C1\CCCNC1=O	14	-33	x	x	4941	x	x
CCC(=O)c1c[nH]c(C(=O)NCCc2ccccn2)c1	-3	-12	-3	2.1	2554	x	x
COc1cc(-c2nnc(COc3ccc4cc(Br)ccc4c3)o2)cc(OC)c1OC	6	-7	-8	8.1	7302	14	2
Nc1nnc(-c2ccc(Cl)cc2Cl)s1	5	-64	-2	3.7	4626	8	0
CCN(CC)C(=O)CNC(=O)Cc1ccc(Cl)cc1	6	-10	14	4.7	8183	11	3
Cn1ncc2c(N3CCCCC3)nc(NCCCO)nc21	-1	-8	0	3.7	5678	10	-1
Cc1cc(C)cc(N(CC(=O)NC2CCCC2)C(=O)CCC(=O)Nc2nccs2)c1	11	-11	-1	2.9	3665	-1	-5
CCCc1cc(=O)n2[nH]c(-c3ccc(Cl)cc3)cc2n1	16	-59	-1	5.3	4044	11	2
CCc1cccc(C)c1NC(=O)C1CN(S(=O)(=O)c2ccccc2)CCN1S(=O)(=O)c1ccccc1 (stereo unspecified)	-3	1	-3	0.2	2535	8	6
O=C(CCNC(=O)c1ccccc1Cl)Nc1cccc(C(F)(F)F)c1	4	-19	-16	3.1	2159	1	3
O=C(CCC(=O)c1cccs1)OCc1ccc([N+](=O)[O-])cc1	x	-4	9	5.1	4128	2	-1
CC(=O)N1CCN(Cc2nc3cc(NC(=O)COc4ccccc4)ccc3n2C)CC1	4	-15	-4	0.6	3869	2	-5
Cc1c(NC(=O)c2ccc(S(=O)(=O)N(C)c3ccccc3)cc2)c(=O)n(-c2ccccc2)n1C	-5	-13	13	-3.0	4249	5	4
Cc1ccc2c(c1)c1c3n2CCN(CC(N)=O)C3CCC1 (stereo unspecified)	-2	13	8	-0.5	2795	-5	2
COc1ccc(C(C)(C)C)cc1NC(=S)NCCN1CCOCC1	8	-17	4	3.0	10159	1	1
Nc1ccccc1Sc1ccccc1[N+](=O)[O-]	-5	-31	-9	-0.6	2438	8	1
COc1ccc(S(=O)(=O)N(CCCN2CCOCC2)Cc2cccc(OC)c2OC)cc1	0	3	9	8.3	3415	-2	6
COC(=O)[C@]1(Cc2ccccc2)N[C@H](CN(C)C(=O)c2ccc(C)cc2)[C@@H]2C(=O)N(C)C(=O)[C@@H]21	x	-9	1	1.1	3469	3	9
CN1C(=O)C(O)(C2COC(C)(C)CC2=O)c2cc(Br)ccc21 (stereo unspecified)	-1	-8	6	3.1	3420	x	x
COc1ccc2oc(C(=O)N3CCN(c4ncccn4)CC3)c(C)c2c1	4	-17	3	2.0	5719	6	2
CNC(=O)COc1coc(CN2CCN(C(=O)c3ccco3)CC2)cc1=O	-6	-13	7	1.0	6318	0	2
Carrying on.
SMILES	BJeLR viability	PrP 5UTR inh	ugtP null kill	RN4220 kill	Bead autofluor	Mtb hypoxia rep	Mtb hypoxia rep growth
CC(C)N(Cc1ccccc1)C(=O)CN1C(=O)NC(Cc2ccccc2)(c2ccccc2)C1=O (stereo unspecified)	-6	-15	0	-3.5	5769	5	15
O=C(CNC(=O)C(c1ccccc1)c1ccccc1)NN=Cc1ccc(O)cc1O	x	x	23	6.0	x	-5	-1
N#Cc1nc(Nc2cc(F)cc(F)c2)c2ncn(CC(F)F)c2n1	x	-8	9	8.2	4243	7	7
COC(=O)c1ccc(C23CC4(C2)[C@H](CN(Cc2ccc(-c5ccccc5)cc2)[C@@H]4c2ccccc2)C3c2ccccc2)cc1 (stereo partly specified)	13	5	x	x	2908	x	x
CCCCN(C(=O)C1CCC1)c1c(N)n(CCC)c(=O)[nH]c1=O	0	-27	8	2.5	5949	6	10
CCc1ccccc1NC(=S)N(CCCN(C)C)Cc1cc2cc3c(cc2[nH]c1=O)OCO3	-2	-24	-6	-4.6	4483	-5	-5
O=S(=O)([O-])C/C(=C\c1ccc(Cl)cc1)c1cc[n+](CCO)cc1	-8	-25	1	3.1	5194	-10	1
O=C(c1ccc(S(=O)(=O)N2CCCCCC2)cc1)N1CCCC(C(F)(F)F)C1 (stereo unspecified)	-4	-22	3	5.1	6178	6	7
Cc1cnc(-c2nnc(N(C)C(=O)C3CCOC3)s2)cn1 (stereo unspecified)	4	-14	2	-0.5	4743	x	x
O=C(CCc1ccccc1)NC1C2CC3CC(C2)CC1C3 (stereo unspecified)	-4	-7	3	0.7	3623	x	x
Cn1c(=S)[nH]c2c(c1=O)C(C)(C)Cc1ccccc1-2	-6	-18	0	4.3	3349	3	10
CCCOc1ccc(C(=O)NCC(c2ccco2)N(C)C)cc1 (stereo unspecified)	-9	-22	4	2.9	2147	5	6
CC(C)C(C)NC(=O)COc1ccc(-c2ccccc2)cc1 (stereo unspecified)	-5	-13	-2	-4.4	3076	x	x
Cc1ccc(NC(=O)CCN2CCN(C/C=C/c3ccccc3)CC2)cc1	x	-18	-3	-6.0	3082	9	10
CC(=O)NCCC(=O)N1CCc2c([nH]c3ccccc23)C1c1cccc(Cl)c1 (stereo unspecified)	-2	-54	-2	-9.3	2396	7	1
CCN1CCN(c2ccc(NC(=O)c3cnccn3)cc2)CC1	-3	x	2	1.0	x	12	14
Cn1c(-c2ccc3c(c2)OCO3)cnc1NCc1ccccc1	6	-36	0	3.1	22213*	-3	7
Cc1ccc(NC(=O)CSc2ccc3nnc(CCNC(=O)c4ccccc4)n3n2)c(C)c1	-5	-16	0	-3.3	2649	2	2
Clc1ccccc1-c1nc2ccccc2c2nc3ccccc3n12	-4	1	-18	1.3	2497	7	3
O=C(NC(C(=O)c1ccccc1)N1CCCCC1)c1ccccc1 (stereo unspecified)	-16	-33	4	3.9	7073	3	2
Fc1ccc2nc(Nc3nc4cc5c(cc4s3)OCO5)sc2c1	-9	-52	-1	-4.8	2513	7	1
Cc1cc(C)nc(NC2=NCC(=O)N2c2ccc(F)c(Cl)c2)n1	3	-7	-2	3.9	2964	4	9
c1ccc(C2CSc3ccccc3N2)cc1 (stereo unspecified)	10	-36	0	4.4	2817	10	-7
O=C1CCCCC1Sc1nnc(Cc2cccs2)n1CCc1ccccc1 (stereo unspecified)	x	-24	-4	2.2	4055	x	x
O=C(/C=C/c1c(Cl)cccc1Cl)N1CCN(c2ncccn2)CC1	6	-15	-2	15	2212	x	x

Reprinted at random: 6 compounds from above.
SMILES	BJeLR viability	PrP 5UTR inh	ugtP null kill	RN4220 kill	Bead autofluor	Mtb hypoxia rep	Mtb hypoxia rep growth
Cc1ccc(NC(=O)CSc2ccc3nnc(CCNC(=O)c4ccccc4)n3n2)c(C)c1	-5	-16	0	-3.3	2649	2	2
Cn1c(=S)[nH]c2c(c1=O)C(C)(C)Cc1ccccc1-2	-6	-18	0	4.3	3349	3	10
O=S(=O)([O-])C/C(=C\c1ccc(Cl)cc1)c1cc[n+](CCO)cc1	-8	-25	1	3.1	5194	-10	1
Cc1ccc(NC(=O)CCN2CCN(C/C=C/c3ccccc3)CC2)cc1	x	-18	-3	-6.0	3082	9	10
Cc1cnc(-c2nnc(N(C)C(=O)C3CCOC3)s2)cn1 (stereo unspecified)	4	-14	2	-0.5	4743	x	x
CCCOc1ccc(C(=O)NCC(c2ccco2)N(C)C)cc1 (stereo unspecified)	-9	-22	4	2.9	2147	5	6

Next section:
SMILES	BJeLR viability	PrP 5UTR inh	ugtP null kill	RN4220 kill	Bead autofluor	Mtb hypoxia rep	Mtb hypoxia rep growth
O=C(O)CN1C(=O)/C(=C\c2cccc(OCc3ccccc3)c2)SC1=S	0	-16	7	4.6	3120	9	-3
COc1ccc(/C=C(\NC(=O)c2ccccc2)C(=O)NN=Cc2cccnc2)cc1	x	x	11	6.0	x	5	4
COc1ccc(N(CC(=O)NCc2ccc(F)cc2)C(=O)c2snc(C(N)=O)c2N)cc1OC	-13	-6	6	7.1	4908	-5	-4
COc1ccc(CCn2c(=S)[nH]c3ccc(N4CCOCC4)cc3c2=O)cc1OC	-9	-24	1	1.0	5085	1	7
Cc1cnc(NC(=O)C(C)N2C(=O)C3CC=CCC3C2=O)s1 (stereo unspecified)	-4	-7	2	4.7	17257*	3	3
C=CCOc1ccc(C2C(C#N)=C(N)N(Nc3ccccc3)C3=C2C(=O)CC(C)(C)C3)cc1OC (stereo unspecified)	0	-22	-7	-11	x	-5	17
NS(=O)(=O)c1ccc(NCc2cc(Cl)ccc2OCc2ccc(F)cc2)cc1	8	-11	-6	16	10468	2	4
Cc1cc(/C=C2/C(=N)N3C(=NC2=O)SN=C3S(C)(=O)=O)c(C)n1-c1ccccc1F	-4	-3	x	x	2052	x	x
CCCn1c(C)nnc1SCC(=O)NC1CCCCC1	1	-13	4	4.9	6151	6	-1
O=[N+]([O-])c1ccc(SCCO)nc1SCCO	-2	-22	1	0.4	3801	5	2
COc1ccc2c(c1)C(C)CC(C)(C)N2C(=O)NC1CCCCC1 (stereo unspecified)	-5	-7	1	5.6	2573	-1	4
COCCOC(=O)c1cc(C(=O)c2cc(F)ccc2O)coc1=N	-20	-1	-1	1.1	3577	x	x
Cc1ccc(S(=O)(=O)N2CC=C(C(=O)NCCC(C)C)CC2)cc1	-5	-8	0	5.0	4575	-12	11
COc1ccccc1-c1nc(SCC(=O)O)n[nH]1	0	-7	6	3.9	4584	x	x
O=C1C(Cl)=C(NC(=O)c2ccccc2)C(=O)C(Cl)=C1NC(=O)c1ccccc1	5	-9	0	1.8	3660	8	-1
COc1cc(NS(=O)(=O)c2ccc(N/C=C(\C=O)c3nc4ccccc4o3)cc2)nc(OC)n1	-9	-6	24	6.7	10955	-4	5
CCN(CC)C(=O)C1=C(C)Nc2ncnn2C1c1cccnc1 (stereo unspecified)	-2	-9	-2	4.1	2427	1	-1
COc1ccc(CC(=O)NN=Cc2sccc2C)cc1	x	x	8	6.4	x	8	-3
COc1ccccc1OCCOC(=O)Nc1ccccc1	2	-25	-2	3.4	1988	12	-1
COc1ccc2cc(C(=O)NCCO)sc(=O)c2c1OC	3	-15	-6	5.5	9633	6	6
O=c1[nH]cnc2cc(Cl)ccc12	7	-7	1	1.5	3123	17	9
O=C(CCC(=O)c1ccc(Br)cc1)Nc1cccc(C(F)(F)F)c1	10	-28	-31	-9.9	2921	8	9
Cn1c(=O)c2c(nc(Cl)n2Cc2ccc(Cl)c(Cl)c2)n(C)c1=O	-5	-18	0	-0.3	2099	x	x
COc1cccc2[nH]c3c(Cl)ncnc3c12	17	-1	-4	-0.9	2645	11	6
Cc1ccc(N2C(=O)CC(N3CCN(c4ccccn4)CC3)C2=O)cc1 (stereo unspecified)	-2	-17	-5	7.2	2463	15	2
Other records:
SMILES	BJeLR viability	PrP 5UTR inh	ugtP null kill	RN4220 kill	Bead autofluor	Mtb hypoxia rep	Mtb hypoxia rep growth
CC1CCN(S(=O)(=O)c2ccc(NC(=O)C3CCN(C(=O)c4ccco4)CC3)cc2)CC1	-1	1	-4	0.1	3774	-8	4
COc1ccc(C(OC(=O)c2ccco2)C(=O)NCc2ccc(C)cc2)cc1 (stereo unspecified)	-4	-23	-1	-0.3	4009	-1	3
O=C(Nn1cnnc1)c1cc(-c2cccc(Br)c2)nc2ccccc12	0	-1	-2	6.7	5409	13	2
CN(C(=O)COC(=O)c1nn(C)c(=O)c2ccccc12)c1c(N)n(Cc2ccccc2)c(=O)[nH]c1=O	5	-3	-1	0.3	u	2	0
CCNc1nc(CSc2ccccc2)nc2sc(C)c(C)c12	-1	-106	x	x	9879	x	x
N#Cc1ccccc1NC(=O)COC(=O)/C=C/c1ccc(S(=O)(=O)N2CCOCC2)cc1	x	1	0	3.8	6695	3	3
Cn1cc(C(=O)c2ccc(Cl)cc2)cc1-c1nc2ccccc2n1C	2	-56	8	-5.2	3186	x	x
Cc1ccc(C)c(N2CCN(C(=O)CCS(=O)(=O)c3ccc4c(c3)NC(=O)C(C)S4)CC2)c1 (stereo unspecified)	-7	0	-3	2.2	4568	-1	-7
